# NPYLR7 ag – activates Aedes aegypti NPYLR7 receptor; hit rate 0.15% among 270,000; AID 1259423; activation, % at 10 µM; HEK293T NPYLR7/Galpha15, GCaMP6s calcium fluorescence; in the data active means activation above about 40%;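 further: 0% = vehicle and 100% = reference agonist at the receptor; some compounds past the cut are filed as inactive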
# NPYLR7 ag max-min – further read-out of NPYLR7 ag, marked with its call; activation, %; measured here: Max-Min RFU normalised activation; some inactives read as strong as hits;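 span of the calcium signal over five minutes; 0% = vehicle and 100% = native peptide agonist; compound fluorescence can raise it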
# * hit, by the source's call; & = joins results of further samples. A portion of the library; the hit share may differ from the screen's.
1	OCc1csc(COc2cccc(CNCc3ccco3)c2)n1
2	CCNC(=O)C1CCN(Cc2nc(-c3cccc(Cl)c3)oc2C)C1 (stereo not given)
3	CCOC(=O)C1(Cc2ccccc2C)CCCN(C(=O)CN(C)Cc2cccnc2)C1 (stereo not given)
4	CCOc1cn2c(cc1=O)C(=O)N(CCNC(=O)C(c1ccccc1)c1ccccc1)CC2
5	CC(C)S(=O)(=O)CCCNC1(c2ccc(Br)cc2)CCOCC1
6	CC(C)(C)C(=O)NCC(=O)Nc1ccc(C(C)(C)C)cc1
7	COc1ccc(CCN(C)c2cc(Oc3ccc(F)c(F)c3)ncn2)cc1OC
8	O=C(c1nn2c(c1Cl)NC(c1ccccc1)CC2C(F)(F)F)N1CCN(C(c2ccccc2)c2ccccc2)CC1 (stereo not given)
assay / compound | 1 | 2 | 3 | 4 | 5 | 6 | 7 | 8
NPYLR7 ag | 32 | 2 | 4 | 11 | 9 | 6 | -3 | -7
NPYLR7 ag max-min | 31 | 1 | 0 | 1 | 6 | 5 | 0 | -4

9	Cc1ccc(NC(=O)CC(=O)N(C)CC2CCCCO2)cc1 (stereo not given)
10	COc1ccccc1N1CCN([C@@H]2[C@H](O)[C@H](CO)O[C@@H]2CNC2CCN(C)CC2)CC1
11	COC(=O)c1sc(=S)sc1C(=O)OC
12	Cc1cc(NC(=O)Cc2ccccc2)nc2c1c(=O)oc1ccccc12
13	CCS(=O)(=O)N1CCc2cc(C(=O)COC(=O)c3ccccc3Nc3ccccc3)ccc21
14	CCC(=O)OCC(=O)[C@@]1(OC(=O)CC)[C@H](C)CC2C3C([C@@H](O)C[C@@]21C)[C@@]1(C)C=CC(=O)C=C1C[C@H]3Cl (stereo not given in full)
15	C/C=C1/[C@H]2C=C(C)C[C@]1(N)c1ccc(=O)[nH]c1C2
16	CCCCn1c(=O)c2c(nc3n(CCN4CCOCC4)c(C)c(C)n23)n(C)c1=O
assay / compound | 9 | 10 | 11 | 12 | 13 | 14 | 15 | 16
NPYLR7 ag | 21 | -9 | 5 | 9 | 2 | -7 | -2 | 2
NPYLR7 ag max-min | 8 | -12 | 4 | 7 | 3 | -10 | -6 | 3

17	Cc1c(C)c(C)c(C(=O)C2CCN(C(=O)CC3NC(=O)NC3=O)CC2)c(C)c1C (stereo not given)
18	CSc1ccc(Cn2c(C)c(C(=O)NCc3ccc4c(c3)OCCO4)sc2=O)cc1
19	Cc1nc(C)c(CCC(=O)O)c(=O)[nH]1
20	O=C(CN1C(=O)COc2ccccc21)N1CCN(S(=O)(=O)c2cccs2)CC1
21	c1ccc2[nH]c(SCCN3CCCC3)nc2c1
22	CC1CCN(c2nc(N3CCC(C)CC3)nc(N3CC4CC(C3)c3cccc(=O)n3C4)n2)CC1 (stereo not given)
23	O=C(c1cccc(Cn2cccn2)c1)N1CCCC1c1ccccn1 (stereo not given)
24	CCNC(=S)N1CCC(C(NC(=O)c2ccccc2F)C(=O)NCCCOC)CC1 (stereo not given)
assay / compound | 17 | 18 | 19 | 20 | 21 | 22 | 23 | 24
NPYLR7 ag | 5 | 15 | 2 | 0 | 6 | -1 | 4 | 5
NPYLR7 ag max-min | 8 | 8 | 3 | 2 | 2 | -3 | -7 | 5

25	COc1nc(NC23CC4CC(CC(C4)C2)C3)nc(OC)n1
26	COc1cn(CC(=O)N2CCCc3ccccc32)c(CSc2nccc(C)n2)cc1=O
27	CC(C)(c1ccc(O)cc1)c1ccc(O)cc1
28	O=C(Nc1ccon1)c1cnc2ccccn2c1=O
29	CCCCN(C)c1c(CC)nc2ccc(C(=O)Nc3cccc(OCC(=O)N(C)C)c3)cn12
30	CCOC(=O)c1ccc2c(c1)nc(SCc1cc(Cl)ccc1Cl)n2CCc1ccc(OC)cc1
31	NS(=O)(=O)c1cc(C(=O)Nc2ccccc2)ccc1Br
32	COc1ccc(NC(=O)c2nnn(-c3cc(Cl)ccc3OC)c2C)cc1
assay / compound | 25 | 26 | 27 | 28 | 29 | 30 | 31 | 32
NPYLR7 ag | 4 | -10 | -1 | 7 | -20 | 12 | -4 | 0
NPYLR7 ag max-min | 4 | -10 | 20 | 9 | -26 | 9 | -8 | 7

# Filtered by structure: those above with an NH in an aromatic ring.
15	C/C=C1/[C@H]2C=C(C)C[C@]1(N)c1ccc(=O)[nH]c1C2
19	Cc1nc(C)c(CCC(=O)O)c(=O)[nH]1
21	c1ccc2[nH]c(SCCN3CCCC3)nc2c1
assay / compound | 15 | 19 | 21
NPYLR7 ag | -2 | 2 | 6
NPYLR7 ag max-min | -6 | 3 | 2

# Values in list order from the entries so far:
# NPYLR7 ag for nos. 25–32 → 4, -10, -1, 7, -20, 12, -4, 0
# NPYLR7 ag max-min for nos. 25–32 → 4, -10, 20, 9, -26, 9, -8, 7

# (next part)
33	Cc1ccc(-n2c(CNC(=O)Nc3ccccc3C(F)(F)F)nnc2SCc2cccc(C)c2)cc1
34	COc1ccc(CNCC2=Cc3cc(Cl)cc(Cl)c3OC2)c(OC)c1OC
35	Cc1c(C(=O)NCC(C)C)sc(=O)n1Cc1ccc(C(=O)N(C)C)cc1
36	COc1ccc(CN(C(=O)c2ccco2)C(C)C)cc1OS(=O)(=O)c1ccc(NC(C)=O)cc1
37	Cc1cccc(OCC(=O)NCc2cnc3c(C)cccn23)c1C
38	Cn1c(NCCc2ccncc2)nc2cc(-c3ccsc3)sc2c1=O
39	Cc1ccc(-c2nc(C)c(C(=O)NCCc3nc(C)no3)s2)c(C)c1
40	CCOC(=O)c1cnc(C2CC2)nc1NCCc1cccs1
assay / compound | 33 | 34 | 35 | 36 | 37 | 38 | 39 | 40
NPYLR7 ag | 11 | 1 | 8 | 8 | 21 | 7 | 4 | -1
NPYLR7 ag max-min | 14 | 0 | 4 | 5 | 12 | 3 | 1 | 10

41	COc1cccc(/C=C/C(=O)Nc2cccc(C(=O)N3CCC(CO)CC3)c2)c1
42	CC1CCN(c2ncnc3sc4c(c23)CCCC4)CC1
43	C/C(=C\Cn1cnc(C(N)=O)c1N)COC(C)(C)C
44	CC1(C)OCC(CNC(=O)CCNC(=O)c2ccc(NC3OC(C4COC(C)(C)O4)[C@@H]4OC(C)(C)O[C@H]34)cc2)O1 (stereo not given in full)
45	Fc1ccccc1CC1CCN(Cc2ccccn2)CC1
46	CO/N=C(/C(=O)NC(c1ccccc1)c1ccc(Cl)cc1)c1csc(NC=O)n1 (stereo not given)
47	COc1ccccc1C(C)NC(=O)N1CCCC1CN1CCCC1 (stereo not given)
48	COc1ccc(-c2noc(CSC)n2)c(OC)c1
assay / compound | 41 | 42 | 43 | 44 | 45 | 46 | 47 | 48
NPYLR7 ag | 18 | 0&-1 | 0 | -7 | 8 | -5 | 11 | 20
NPYLR7 ag max-min | 18 | 2&-3 | -2 | -14 | 5 | -6 | 12 | 16

49	CCOC(=O)C1CCCN(C(=O)c2cnn(-c3ccc(F)cc3)c2C(C)C)C1 (stereo not given)
50	COCCn1cc(NC(=O)Nc2ccc(C)cc2)c2ccccc21
51	Nc1nccc2c1ncn2[C@@H]1C=C(CO)[C@@H](O)[C@H]1O
52	Cc1nc(CNc2ccc(-c3nccn3C)nn2)nc2c1CCCC2
53	Cc1ccc(N(CC(=O)NCc2ccncc2)S(=O)(=O)c2ccc(F)cc2)cc1
54	COc1cccc(C(=O)NC(C)C2c3cc(OC)c(OC)cc3CCN2Cc2cccc(C)c2)c1 (stereo not given)
55	CCOC(=O)c1sc(=NC(=O)c2ccccc2Br)n(C)c1C
56	Cc1cccn2c(CC(=O)N(Cc3cnn(C)c3)C3CC3)cnc12
assay / compound | 49 | 50 | 51 | 52 | 53 | 54 | 55 | 56
NPYLR7 ag | 15 | 17 | 0 | 19 | -5 | -2 | 15 | -1
NPYLR7 ag max-min | 27 | 6 | -6 | 12 | -13 | 5 | 16 | 12

57	COC(=O)/C=C1\SC(=NC(=O)c2ccc(C)cc2)NC1=O
58	COC(=O)c1cc(C(=O)NCc2cccnc2Oc2ccccc2C)n(C)n1
59	Cc1c(O)cccc1C(=O)NCC1CCN(CCC(F)(F)F)CC1
60	COc1cn(CC(=O)NCc2ccc3c(c2)OCO3)c(CSc2nncn2C)cc1=O
61	CCc1ocnc1C(=O)N1CCn2nc(C(=O)OC)cc2C1
62	CC(=O)Nc1cc(C(=O)N2CCOCC2)cn(C)c1=O
63	Cc1nnsc1CNC(=O)CCNC(=O)c1ccccc1F
64	COc1ccc(CN(C)C(=O)Nc2nc(C)n(C)n2)c2cccnc12
assay / compound | 57 | 58 | 59 | 60 | 61 | 62 | 63 | 64
NPYLR7 ag | 6 | -3 | -3 | -6 | 0 | -2 | 16 | -2
NPYLR7 ag max-min | 4 | -4 | -2 | -11 | -4 | -4 | 5 | 8

# Profiles as entered above:
# Cc1nnsc1CNC(=O)CCNC(=O)c1ccccc1F reads NPYLR7 ag: 16; NPYLR7 ag max-min: 5
# CCS(=O)(=O)N1CCc2cc(C(=O)COC(=O)c3ccccc3Nc3ccccc3)ccc21 reads NPYLR7 ag: 2; NPYLR7 ag max-min: 3

# The listing picks up; the four compounds before the break are reprinted first.
61	CCc1ocnc1C(=O)N1CCn2nc(C(=O)OC)cc2C1
62	CC(=O)Nc1cc(C(=O)N2CCOCC2)cn(C)c1=O
63	Cc1nnsc1CNC(=O)CCNC(=O)c1ccccc1F
64	COc1ccc(CN(C)C(=O)Nc2nc(C)n(C)n2)c2cccnc12
65	Cc1nn(CCOC(=O)C2CCC2)c2ncc(Br)cc12
66	NS(=O)(=O)c1ccc(F)cc1F
67	O=C(c1ccco1)N(CCCn1ccnc1)c1nc2ccc(F)cc2s1
68	CCN1CCN(C(=O)c2cc(-c3ccc(OC)cc3)nc3c2c(C)nn3C2CCS(=O)(=O)C2)CC1 (stereo not given)
69	CNC(=O)Cc1noc(CN2CCCC2c2cc(C)cc(C)c2)n1 (stereo not given)
70	Cn1cc(C=O)c2nc3cc(C(F)(F)F)ccc3cc2c1=O
71	COc1cc2c(cc1NS(=O)(=O)c1ccccc1OC)oc1ccccc12
72	O=c1[nH]c(COc2ccc(Br)cc2Cl)nc2sccc12
assay / compound | 61 | 62 | 63 | 64 | 65 | 66 | 67 | 68 | 69 | 70 | 71 | 72
NPYLR7 ag | 0 | -2 | 16 | -2 | 2 | 3 | -12 | 0 | -24&5 | 0 | 3 | 2
NPYLR7 ag max-min | -4 | -4 | 5 | 8 | 1 | 0 | -17 | 4 | -23&3 | -1 | 0 | -1

73	O=C(NC1CCN(CC2CCCC2)C1)N1CCC[C@@H]1CO (stereo not given in full)
74	CC1(C)CC(=O)C(C=Nc2ncc(C(F)(F)F)cc2Cl)=C(O)C1
75	O=C(c1ccco1)N(CC(=O)N1CCc2sccc2C1COc1ccccc1F)CC1CCCO1 (stereo not given)
76	Cc1nc(C)c(C(=O)N2CCC2c2ccc(F)cc2)s1 (stereo not given)
77	CCOc1ccc(NC(=O)CSc2nnc(NCCOC)s2)cc1
78	CCOc1ccc(-c2ccnc(N3CCN(S(=O)(=O)c4ccc(OC)cc4)CC3)n2)cc1
79	NS(=O)(=O)c1ccc(Nc2ccc(N3CCCCC3)nc2)c([N+](=O)[O-])c1
80	C=CCN1C[C@@H]2C[C@@H](C(=O)OCC)N(C(=O)c3ccc(OC)cc3)c3cccc(c32)C1=O
assay / compound | 73 | 74 | 75 | 76 | 77 | 78 | 79 | 80
NPYLR7 ag | 3 | -4 | -2 | 6 | 10 | 21 | 4 | 0
NPYLR7 ag max-min | 5 | -5 | 3 | 4 | 7 | 26 | 8 | 14

81	CNc1cncc(-c2cccc([N+](=O)[O-])c2)n1
82	CO[C@H]1C(=O)N(C)C2(CCNCC2)[C@@H]1C(=O)N(C)c1ccccc1
83	Cc1onc(C(=O)N(C)C2CCCCC2)c1[N+](=O)[O-]
84	CCOC(=O)C1CCN(C(=O)c2nn(-c3ccc(C(C)C)cc3)c(=O)n(Cc3ccccc3F)c2=O)CC1
85	COCCN(CC(=O)N1CCc2sccc2C1c1ccc(Cl)cc1Cl)C(=O)C(C)(C)CCl (stereo not given)
86	CSc1nn(CC(=O)Nc2ccc(Br)cc2F)c(N)c1S(=O)(=O)c1ccccc1
87	COc1ccc(-n2c(=O)[nH]c3c(C(N)=O)nc(C4CCCCC4)nc32)cc1OC
88	CN=c1scc(-c2ccccc2)n1C
assay / compound | 81 | 82 | 83 | 84 | 85 | 86 | 87 | 88
NPYLR7 ag | 2 | 8 | 9 | -2 | 1 | -6 | -3 | 7
NPYLR7 ag max-min | 4 | 17 | 8 | -1 | 0 | -12 | -6 | 5

89	Cc1ccc(-c2csc3nc(CN4CCN(c5ccccc5F)CC4)[nH]c(=O)c23)cc1
90	Cn1ccnc1C(NS(=O)(=O)c1cccc(Cl)c1)c1ccccc1 (stereo not given)
91	O=C(Cc1ccc2c(c1)CCC2)NCc1cnn(-c2ccc(F)cc2F)c1
92	O=C(c1cc(F)ccc1C(F)(F)F)N1CCN(C(=O)C2c3ccccc3Oc3ccccc32)CC1
93	C=CCn1c(=O)c2ccccc2n2c(=S)n(CN(C)Cc3ccc(C)cc3)nc12
assay / compound | 89 | 90 | 91 | 92 | 93
NPYLR7 ag | 4 | 2 | 0 | -2 | 8
NPYLR7 ag max-min | 9 | -2 | 1 | -8 | 11

# Screening results (PubChem BioAssay)
